Screening results from PubChem BioAssay.
Env fusion inh = inhibitors of HIV Env-mediated cell fusion. inhibition, % at 12.3 µM. AID 651610. hit rate 1.1% among 360,000. HeLa-JRFL Env/CEM21 cell fusion, luciferase;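 active = mean replicate inhibition score of at least 50 and every replicate individually at or above 50; inconclusive = only one of the two criteria met; inactive = mean below 50 and not all replicates reaching 50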;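 also: 0% = plate neutral controls and 100% = maraviroc near 300 nM; one replicate is shown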
Rce1 inhib = yeast Ras-converting enzyme inhibition; Q03530; yeast membranes, quenched prenylated peptide cleavage fluorescence; calls only; hit rate 0.27% among 290,000; AID 2563;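 active = fall in fluorescence gain of 50% or more versus controls, with final raw signal at or below 3038400; inconclusive = same 50% fall but final raw signal above 3038400; inactive = fall in fluorescence gain under 50%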;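 also: plate controls were neutral control wells for no effect and wells lacking membranes for full effect; tested at 10 µM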
Target sequence (Q03530 whole entry, looked up): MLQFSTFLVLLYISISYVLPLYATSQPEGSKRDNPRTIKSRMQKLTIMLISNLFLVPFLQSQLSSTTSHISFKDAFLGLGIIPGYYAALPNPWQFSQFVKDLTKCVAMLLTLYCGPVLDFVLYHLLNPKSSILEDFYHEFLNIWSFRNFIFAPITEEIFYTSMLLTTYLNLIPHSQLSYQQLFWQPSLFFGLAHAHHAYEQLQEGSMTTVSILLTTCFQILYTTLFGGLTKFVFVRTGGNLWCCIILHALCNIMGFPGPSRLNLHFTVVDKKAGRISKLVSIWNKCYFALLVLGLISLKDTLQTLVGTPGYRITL
MT1-MMP act inh = blocks activation of human MT1-MMP | P50281 | HT1080 RFP-PRO-GFP cells, GFP/RFP ratio fluorescence, overnight; percent of plate control window, DMSO zero | GFP/RFP ratio change, % at 20 µM | hit rate 0.061% among 360,000 | AID 651647;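 active = GFP/RFP ratio change of at least 30% with cell ATP level not reduced by more than half and red fluorescence within 50% of control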; also: strong numbers were not always called active
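Material – HT1080 RFP-PRO-GFP cells · Control set – DMSO wells and RFP-L50D-GFP cells · Incubation – overnight cell settling, then overnight compound exposure, 37 °C, 5% CO2 · Compound dosing – single-point 20 µM compound, 1% DMSO · Read-out – GFP/RFP fluorescence ratio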
Yeast UUG start = alters start codon recognition fidelity in yeast; hit rate 0.13% among 350,000; activity score, % at 18.7 µM; AID 602363; S. cerevisiae UUG-firefly luciferase reporter, luminescence/redox ratio;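 active = replicate mean at a twofold rise or more, about +100% in these data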;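 also: firefly luciferase made from a UUG start codon reports start codon fidelity; reporter light over untreated wells divided by growth signal over untreated wells; some hits fall short of that in this replicate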
eIF4H inh = inhibitors of RNA binding by human eIF4H; inhibition, % at 35 µM; AID 2012; hit rate 0.94% among 290,000; eIF4H fluorescence polarization binding assay; Q15056;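 active = 50% or more with normal probe brightness, or confirmed in later tests; inconclusive = above 50% with abnormal brightness, or retests that disagree; inactive = below 50% or failed in later tests; about a fifth of its hits are not listed in these tables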;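 also: calls also rest on retests at 20 µM and on dose response follow-up; 0% = protein and probe with vehicle and 100% = probe without protein; strong numbers were not always called active; many hits fall short of the cut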
CSC inhib = blocks cancer stem cells. inhibition, % at 7.5 µM. AID 2717. hit rate 1.1% among 300,000. cancer stem cell-like cells viability, luminescence;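 active = mean at 75% or more and at least half the replicates too; inconclusive = mean and replicates disagree; tested in HMLE shEcad cells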;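 also: 0% = median of negative and 100% = median of positive control wells; the first replicate is given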
PABP polyA inh = blocks human PABP binding to poly(A) RNA. fluorescence polarization. inhibition, % at 35 µM. hit rate 1% among 290,000. AID 2014;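 active = 50% or more with normal probe brightness, or confirmed in later tests; inconclusive = above 50% with abnormal brightness, or retests that disagree; inactive = below 50% or failed in later tests; about a fifth of its hits are not listed in these tables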;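 also: calls also rest on retests at 20 µM and on dose response follow-up; controls were probe without protein and protein plus probe with vehicle; some compounds called inactive have numbers as strong as hits; many hits fall short of the cut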
MT1-MMP act inh RFP = also measured in MT1-MMP act inh; calls as there; RFP signal change, %; measured here: RFP expression control read;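 0 = vehicle wells; hits needed this value within 50% of zero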
Numbers without * were called inactive; i = inactive; u = inconclusive; x = no result given; & = joins results of further samples.

Values run as follows: Env fusion inh, Rce1 inhib, MT1-MMP act inh, MT1-MMP act inh RFP, Yeast UUG start, eIF4H inh, CSC inhib, PABP polyA inh
O=C(Nc1ncc(S(=O)(=O)c2ccc([N+](=O)[O-])cc2)s1)c1ccccc1F
    3, i, -4, -15, x, 1, 14, 5
CC(=O)N[C@H]1[C@H]([C@H](O)[C@H](O)CO)OC(C(=O)O)=C[C@@H]1O
    10, i, 3, 1, -5, x, -1, x
CCCN(CCC)C(=O)c1ccc2c(c1)N(CC)C(=O)c1ccccc1S2(=O)=O
    25, i, -5, 5, x, 9, -4, -5
CN1CCN(C(=O)/C=C/c2ccccc2)CC1
    4, i, 1, 2, -18, -2, -6, 9
Cc1cc(C)n(C(C)CNS(=O)(=O)c2ccc(Cl)cc2)n1 (stereo unspecified)
    3, i, -1, 0, -3, -2, -6, 5
Cc1ccc(N2CCN(/N=C/c3c(C)nn(-c4ccccc4)c3Cl)CC2)cc1
    7, i, 6, 2, x, -4, 5, -13
Cc1ccc(C(O)C(=O)c2ccco2)cc1 (stereo unspecified)
    -13, i, 4, 0, -13, x, -10, x
COc1ccc(NCc2nnc(SCC(=O)Nc3cccc(C)c3)o2)cc1
    -75, i, -1, -8, -14, -10, 18, -6
Cc1[nH]nc2oc(=O)c(CCO)c(C)c12
    -2, i, 1, 5, x, 7, -7, 14
O=C(Cc1ccc2c(c1)OCCO2)Nc1cc(C(F)(F)F)ccc1N1CCOCC1
    41, x, -5, -4, 16, x, x, x
C=CCNC(=S)Nc1ccccc1-c1nnc2n1CCCCC2
    -2, i, 1, 0, -20, 4, -9, 4
Cc1ccc(-c2nc(=S)c3c(n2CCN2CCOCC2)CC(C)(C)OC3)cc1
    x, i, -6, 4, -7, -2, -5, -4
Cc1ccc(NC(=O)Cn2c(CCC(=O)O)ccc2-c2cccs2)cc1
    -42, i, 1, 6, 0, 9, x, 12
CCOC(=O)NC1(C(F)(F)F)N=C(c2ccccc2)NC1=O (stereo unspecified)
    x, i, -2, 0, 8, -3, -8, -12
Fc1cccc(C2CC(c3cccc(Br)c3)Nc3nnnn32)c1 (stereo unspecified)
    x, i, -4, -6, x, -16, -18, 16
CCOC(=O)c1ccc(NC(=O)CNC(=O)c2ccccc2)cc1
    -66, i, 4, 5, -23, 3, 0, 2
O=C(C1=C(O)C(=O)N(CCN2CCOCC2)C1c1ccccc1)c1cccs1 (stereo unspecified)
    -22, i, 22, 4, -5, x, -19, x
O=C(Nc1ccccc1C(=O)O)c1cccc(NC(=O)c2ccco2)c1
    -95, i, 1, -2, -9, 0, 6, 9
COc1ccc(C2=NN(CCC(=O)NCc3ccc4c(c3)OCO4)C(=O)CC2)cc1
    8, i, 1, 4, x, -12, -14, -10
Cc1ccc(-c2csc(N)n2)cc1
    -21, x, -2, 2, -3, x, x, x

Grouped by structure, the compounds so far containing an aryl methoxy group (2)
Values run as follows: Env fusion inh, Rce1 inhib, MT1-MMP act inh, MT1-MMP act inh RFP, Yeast UUG start, eIF4H inh, CSC inhib, PABP polyA inh
COc1ccc(NCc2nnc(SCC(=O)Nc3cccc(C)c3)o2)cc1
    -75, i, -1, -8, -14, -10, 18, -6
COc1ccc(C2=NN(CCC(=O)NCc3ccc4c(c3)OCO4)C(=O)CC2)cc1
    8, i, 1, 4, x, -12, -14, -10

Quoted from the listing:
`Cc1ccc(-c2csc(N)n2)cc1` in MT1-MMP act inh RFP = 2
`Cc1cc(C)n(C(C)CNS(=O)(=O)c2ccc(Cl)cc2)n1` (stereo unspecified) in MT1-MMP act inh = -1
`Cc1ccc(-c2nc(=S)c3c(n2CCN2CCOCC2)CC(C)(C)OC3)cc1` in MT1-MMP act inh RFP = 4

(more compounds)
Values run as follows: Env fusion inh, Rce1 inhib, MT1-MMP act inh, MT1-MMP act inh RFP, Yeast UUG start, eIF4H inh, CSC inhib, PABP polyA inh
COc1ccccc1NC(=S)N1CCN(C(=O)C2CCCO2)CC1 (stereo unspecified)
    31, i, 4, -10, -6, 6, 19, -8
COc1ccc(Cc2c(O)nc(SCC(=O)c3ccc(OC)cc3)[nH]c2=O)cc1
    8, i, 4, 8, x, -4, -9, -10
Cc1cccc(Cc2nnc(CCC(=O)N(C)C3CCOC3)o2)c1 (stereo unspecified)
    -5, i, 3, 7, -9, -6, -12, 2
CC(C)CCNC(=O)CN(Cc1ccc2c(c1)OCO2)C(=O)CCC(=O)Nc1ccccn1
    x, i, -2, -1, -11, -5, -7, -4
O=C(Nc1ccc([N+](=O)[O-])cc1)Nc1ccon1
    -135, i, 6, -11, -21, -7, x, -6
CCc1nc2ccc(C(=O)NC3CCN(Cc4ccccc4)CC3)cn2c1N(C)Cc1cc2ccccc2s1
    35, x, -4, -10, -21, x, x, x
NNC(=O)CNc1cccc(Br)c1
    -30, i, 3, 3, x, 3, -6, -3
CCN(c1ccccc1)S(=O)(=O)c1cc2c3c(c1)C(C)C(=O)N3CCC2 (stereo unspecified)
    2, i, 4, 1, 9, -13, -16, -1
COc1cccc(CN(C)C(=O)C23CC4CC(CC(C4)C2)C3)c1
    5, i, -7, -2, -9, -8, 29, 6
O=C(CSc1ccc([N+](=O)[O-])cc1)Nc1cccc(S(=O)(=O)Nc2ccccc2F)c1
    -23, i, 4, -2, x, -10, 1, 15

The final 3 entries of the section before lead into the next.
Values run as follows: Env fusion inh, Rce1 inhib, MT1-MMP act inh, MT1-MMP act inh RFP, Yeast UUG start, eIF4H inh, CSC inhib, PABP polyA inh
CCN(c1ccccc1)S(=O)(=O)c1cc2c3c(c1)C(C)C(=O)N3CCC2 (stereo unspecified)
    2, i, 4, 1, 9, -13, -16, -1
COc1cccc(CN(C)C(=O)C23CC4CC(CC(C4)C2)C3)c1
    5, i, -7, -2, -9, -8, 29, 6
O=C(CSc1ccc([N+](=O)[O-])cc1)Nc1cccc(S(=O)(=O)Nc2ccccc2F)c1
    -23, i, 4, -2, x, -10, 1, 15
Cc1ccccc1NC(=O)Cn1c(=O)n(C)c2ccccc21
    5, i, 3, 4, -15, -2, -7, -2
Cc1nc(-c2ccc(S(=O)(=O)Nc3cccc(Cl)c3)cc2)co1
    5, i, -4, -3, -27, -2, 16, 3
CCOC(=O)c1cc2c(=O)n3ccccc3nc2n(Cc2ccco2)c1=NC(=O)c1cccc(OC)c1
    8, i, -6, 3, 3, 8, 2, -10
CCOc1ccc(N(Cc2ccc(C(=O)O)cc2)S(=O)(=O)c2ccc(C)cc2)cc1
    -31, i, -5, -11, -8, 9, 12, -5
Cc1c2c(nc3c(C(=O)NC4CC4)cnn13)CCCC2
    -64, i, 10, 0, -9, -2, x, 1
Cc1cc(NC(=O)c2ccccc2)n(-c2nc3ccccc3[nH]2)n1
    -3, i, 1, 3, x, 15, -7, -4
CC(=O)Nc1ccc(NC(=O)CSc2nnc(-c3ccc4c(c3)OCO4)o2)cc1
    x, x, -1, 2, -32, x, 5, x
CC(C)CCOCC(O)CCC(=O)NNC(=S)Nc1ccccc1 (stereo unspecified)
    2, i, 4, 3, x, -2, -10, -10
Cc1cc(OCCN2CCCC2)ccc1C(C)C
    x, i, 4, 9, -11, -4, 1, 9
Nc1nonc1C(=O)NCCNS(=O)(=O)c1ccc(Br)cc1
    -48, i, 4, 5, x, 0, 0, -2
Cc1ccc(S(=O)(=O)Nc2cccc(-c3cn4ccsc4n3)c2)cc1
    x, i, 3, -10, 2, -14, 38, -7
CCOc1ccc(S(=O)(=O)N(C)C2CCCCC2)cc1
    -2, i, -4, -2, 0, -16, 4, -13
CCC(C)NC(=O)CC(c1ccccc1)c1cc(C)ccc1O (stereo unspecified)
    2, i, -6, 0, -8, -4, 3, -2
CCOC(=O)C1CCN(C(=O)CSCCSCC(=O)N2CCC(C(=O)OCC)CC2)CC1
    x, i, 7, 3, -20, -7, -6, 0
CCc1ccc(N2CC(C(=O)Nc3ccc(C)c(S(=O)(=O)N4CCOCC4)c3)CC2=O)cc1 (stereo unspecified)
    29, i, 9, -4, 3, -7, -9, -8
CC(=O)c1ccc(N2CCN(S(=O)(=O)c3cc(-c4cc(C)no4)ccc3C(C)C)CC2)cc1
    11, i, -3, -5, -20, -4, u, -6
CCCNCC1C(Oc2ccc(Cl)cc2Cl)C(=O)N1c1cccc(C)c1C (stereo unspecified)
    -4, i, -6, -11, x, -6, 81*, 8
COC(=O)NC(NC(=S)Nc1cccc(C)c1)C(Cl)(Cl)Cl (stereo unspecified)
    -13, i, 0, 1, x, -6, x, 7
NC(=O)c1sc2cc(C(F)(F)F)cnc2c1-c1ccccc1
    16, x, 2, 2, x, -5, -2, 7
CCCOc1ccc(CSc2n[nH]c(C)n2)cc1
    -19, i, 1, -5, -62, -4, 12, -4
COc1ccc(OC)c(-n2c(=S)[nH]c3cc(C(=O)N4CCN(c5ccccc5)CC4)ccc3c2=O)c1
    1, i, 6, -2, -6, 16, -32, 11
COc1ccc(/C=C/c2nc(-c3ccccc3O)n(-c3ccccc3)n2)cc1
    7, i, 10, 7, -1, 13, 12, -16
CC(=O)N1CCN(c2ccc(NC(=O)c3ccccc3)cc2)CC1
    -3, i, 1, -3, -5, -4, -6, 5
COC(=O)[C@@]1(Cc2ccc(F)cc2)[C@H]2c3cc(C(=O)N(C)C)n(Cc4c(CO)[nH]cc(C)c4=O)c3C[C@H]2CN1C(=O)c1ccccc1
    -36, x, x, x, x, -9, 22, -3
CCc1ccc(-c2csc(-c3c[nH]c4ccccc34)n2)cc1
    -25, i, 6, 4, -11, -9, 59, -5
CCOc1ccc(N(CC(=O)NCc2ccc(C)cc2)S(=O)(=O)c2c(C)[nH]c(=O)[nH]c2=O)cc1
    x, i, 3, 1, 7, -4, 10, 2
Cc1cc(=O)n2nc(-c3ccccc3)sc2n1
    -228, i, -1, -1, -10, 56*, 5, 65*
Cc1cc(=O)[nH]c(N/N=C/c2ccccc2C(F)(F)F)n1
    -12, x, 0, -6, x, -5, -8, 9
O=C(NC1CCCC1)C1c2ccccc2C(=O)N1CCCN1CCOCC1 (stereo unspecified)
    -19, i, 2, 4, -15, 3, -12, -2
C[C@H](CO)N1C[C@H](C)[C@H](CN(C)C(=O)Nc2ccnc(N3CCOCC3)c2)OCc2cnnn2CCCC1=O
    16, x, 1, 2, -2&3, x, x, x
CCC(=O)Nc1ccc(C(=O)NNC(=O)c2ccccc2)cc1
    5, i, -2, -3, x, -2, 10, -6
O=C(Cc1ccc(NC(=O)C2CCN(C(=O)C3CCC3)CC2)cc1)Nc1cccc(C(=O)N2CCCC2)c1
    8, x, 2, 6, -10, x, x, x
Cc1cc(Oc2ccc(=O)n(C)n2)nc(SCc2ccccc2)n1
    12, i, 2, 0, x, -4, 9, -2
